NPYLR7 ag: mosquito NPYLR7 agonism; actives 0.15% (n = 270,000); HEK293T NPYLR7/Galpha15, GCaMP6s calcium fluorescence; activation, % at 10 µM; in the data active means activation above about 40%;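 further: 0% = vehicle and 100% = reference agonist at the receptor; some compounds past the cut are filed as inactive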
NPYLR7 ag max-min: also measured in NPYLR7 ag; calls as there; activation, %; measured here: Max-Min RFU normalised activation; some inactives read as strong as hits;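 span of the calcium signal over five minutes; 0% = vehicle and 100% = native peptide agonist; compound fluorescence can raise it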
An asterisk follows results filed as active; & = joins results of further samples.

Start of the listing, in advance, 14 compounds:
SMILES	NPYLR7 ag	NPYLR7 ag max-min
Cc1nc(SCc2ccc(C(=O)NC3CC3)cc2)nc(N(C)Cc2ccccc2)c1C	8	12
CN1CCN(C(=O)c2cccc(CSc3nc(N4CCOCC4)cc(C(C)(C)C)n3)c2)CC1	7	16
C#CCn1c(=NC(=O)C2=COCCO2)sc2cc(C(=O)OCC)ccc21	2	-2
N#Cc1cccc(OC2CC3CCC(C2)N3C(=O)c2ccc(CSc3cccc(C(F)(F)F)c3)cc2)c1 (centres undefined)	8	-2
Cc1nc(CN2CC(OCc3ccncc3)CN(Cc3ccc4c(c3)OCCO4)CC2=O)cs1 (centres undefined)	-9	-14
Nc1nnc(CCCNC2CCC3(CCNCC3)CC2)s1	5	4
C=CCN1CCN(c2nc3c(c(=O)[nH]c(=O)n3C)n2Cc2ccc(Cl)c(Cl)c2)CC1	-3	-3
Cc1ccc(NC(=O)CCNC(=O)c2onc3ccccc23)c(F)c1	23	14
COc1cc(CN2C[C@H]3CC=CC[C@H]3C2)cc(OC)c1OC(C)C(=O)O (some centres undefined)	-3	-3
CCCCNC(=O)c1cn(CCC)cc2c(=O)n(-c3ccccc3)nc1-2	3	2
Cc1ccc2oc(=O)n(C3CCN(C(=O)Cc4ccccc4)CC3)c2c1	32	31
CC(C)CNC(=O)c1cc(C(C)C)n(-c2nc3ccccc3s2)n1	7	1
COC(=O)c1cccc(CN2C(=O)C(C)Sc3ccc(-c4cccc(OC)c4)cc32)c1 (centres undefined)	2	1
O=S(=O)(c1cccc2nsnc12)N(CCc1ccccc1)Cc1ccccc1	7	4

The list itself, from the first entry:
SMILES	NPYLR7 ag	NPYLR7 ag max-min
Cc1nc(SCc2ccc(C(=O)NC3CC3)cc2)nc(N(C)Cc2ccccc2)c1C	8	12
CN1CCN(C(=O)c2cccc(CSc3nc(N4CCOCC4)cc(C(C)(C)C)n3)c2)CC1	7	16
C#CCn1c(=NC(=O)C2=COCCO2)sc2cc(C(=O)OCC)ccc21	2	-2
N#Cc1cccc(OC2CC3CCC(C2)N3C(=O)c2ccc(CSc3cccc(C(F)(F)F)c3)cc2)c1 (centres undefined)	8	-2
Cc1nc(CN2CC(OCc3ccncc3)CN(Cc3ccc4c(c3)OCCO4)CC2=O)cs1 (centres undefined)	-9	-14
Nc1nnc(CCCNC2CCC3(CCNCC3)CC2)s1	5	4
C=CCN1CCN(c2nc3c(c(=O)[nH]c(=O)n3C)n2Cc2ccc(Cl)c(Cl)c2)CC1	-3	-3
Cc1ccc(NC(=O)CCNC(=O)c2onc3ccccc23)c(F)c1	23	14
COc1cc(CN2C[C@H]3CC=CC[C@H]3C2)cc(OC)c1OC(C)C(=O)O (some centres undefined)	-3	-3
CCCCNC(=O)c1cn(CCC)cc2c(=O)n(-c3ccccc3)nc1-2	3	2
Cc1ccc2oc(=O)n(C3CCN(C(=O)Cc4ccccc4)CC3)c2c1	32	31
CC(C)CNC(=O)c1cc(C(C)C)n(-c2nc3ccccc3s2)n1	7	1
COC(=O)c1cccc(CN2C(=O)C(C)Sc3ccc(-c4cccc(OC)c4)cc32)c1 (centres undefined)	2	1
O=S(=O)(c1cccc2nsnc12)N(CCc1ccccc1)Cc1ccccc1	7	4
CC(C)CN(CC(=O)N1CCc2sccc2C1c1ccc(F)cc1)C(=O)c1ccc([N+](=O)[O-])cc1 (centres undefined)	5	18
O=C(Nc1nnc(COc2ccc(Cl)cc2)s1)c1ccccc1	-2	-9
CCOC(=O)C1C(C)=NC2=C(C(=O)CC(C)(C)C2)C1c1ccc(CC)s1 (centres undefined)	7	3
Cc1c(CN2CCCC(CNC(=O)c3cccs3)C2)[nH]c2ccc(Cl)cc12 (centres undefined)	4&12	2&6
O=C(Nc1ccc(-c2nc3ncccc3o2)cc1)Nc1cccc(Cl)c1	2	13
Cc1ccc2nc(C)cc(C(=O)N3CCCC(CO)(Cc4ccccc4C)C3)c2c1 (centres undefined)	-9	-15
CNC(=O)c1cc(NCC2CCCCC2)ccn1	1	-3
CCCS(=O)(=O)N1CCN(c2ccc(C)nn2)CC1	-16	-25
O=[N+]([O-])c1cccc(CSc2cccc3cccnc23)c1	-3	-2
Cc1ncoc1C(=O)NC1CCCc2nc(-c3ccccc3)ncc21 (centres undefined)	3	1
CC(C)c1nc(CCn2cnnn2)n(-c2cccc3cccnc23)n1	2	-4
CCOc1ccc(C(=O)Nc2cc(-c3nc4ccccc4o3)ccc2OC)cc1	8	10
CCc1noc(CN(C)Cc2ccc(Br)cc2)n1	-2	-1
CCN(CC)C(=O)C(=O)Nc1cc(C(=O)N(CC)CC)ccc1Cl	10	10
COC(=O)c1ccc(N2C(=O)CSC2c2ccc(F)cc2)cc1 (centres undefined)	-1	-1
Cn1cc(-c2cc3cnc(Nc4cccc(S(C)(=O)=O)c4)cc3n2Cc2ccccc2)cn1	0	-3
Cc1nnsc1CN(C)CCC(C)c1ccccc1 (centres undefined)	5	3
O=C(c1ccc([N+](=O)[O-])cc1Cl)N(Cc1cccc(OS(=O)(=O)c2cccc(C(F)(F)F)c2)c1)Cc1ccco1	21	16
c1ccc(Cn2c3ccccc3c3nc4ccccc4nc32)cc1	7	4
CN1CC(C(=O)NCc2ccc3c(c2)CCC3)CC1=O (centres undefined)	0	0
CN(C)C(=O)CSc1nnc(-c2ccc(C(C)(C)C)cc2)n1C	9	5
Cc1sc(NC(=O)C2CC(=O)N(Cc3ccco3)C2)c(C#N)c1C (centres undefined)	-4	-3
CC1CN(C(=O)c2nn(C)c(=O)c3ccccc23)CC(C)O1 (centres undefined)	-10	-12
CCc1ccc(S(=O)(=O)NCCCn2nc(-c3ccc(Cl)cc3)ccc2=O)s1	-2	-3
O=C(CSc1nc2ccccc2[nH]1)c1ccc(O)cc1O	-3	-9
Cc1nc(C)c(C(=O)N2CCC(n3nccc3NC(=O)C(C)(C)C)CC2)s1	3	-2
CCC(=O)NC(NC(=O)CC)C(Cl)Cl	5	5
COc1cccc2cc(-c3nc4ccccc4[nH]3)c(=Nc3cccc(C)c3)oc12	-7	-11
O=C(Nc1cccc(-c2ccc(F)cc2)c1)C1CCCN(C(=O)CCN2CCCO2)C1 (centres undefined)	3&2	-3&1
O=C(Cc1ccc(-n2cccn2)cc1)NCC(F)(F)F	10	7
COC(=O)C1(C(=O)N(C)Cc2ccccc2C(F)(F)F)CC1	20	13
CC(C)c1ccc(CC(=O)N2CCC2(C)C(=O)NCc2ccccc2Br)cc1 (centres undefined)	6	4
CC1CCCCN1C(=O)CN1CCN(C(=O)Nc2ccc(F)c(N3CCCC3=O)c2)CC1 (centres undefined)	5	2
COc1cccc(CCNC(=O)c2cnn3c2CCCC3)c1	1	-4
Cc1ccc(NC(=O)CSc2ccc(-c3sc(-c4cccnc4)nc3C)nn2)cc1	4	2
COc1ccc(-c2ccc3nc(CO)[nH]c3c2)cc1Cl	6	-2
CC(C)c1cccc(C(C)C)c1NC(=O)N1CC(Cc2ccccc2F)C1	1	-2
Cc1ccc(C)c(C(C)NCC(=O)Nc2cc3c(cc2Br)OCCO3)c1 (centres undefined)	-2	-2
O=C(O)CCN1C(=O)C2C3C=CC(C3)C2C1=O (centres undefined)	0&-11	-11&-19
CCSc1nnc(NC(=O)C=Cc2ccc(Br)o2)s1	2	-2
COc1c(Cl)cc(Cl)cc1C(Nc1ccccc1)P1(=O)OCC(C)(C)CO1 (centres undefined)	1	-1
Cc1c(C)c2c(c(C)c1O)CCC(C)(C(=O)N1CCc3c(nc[nH]c3=O)C1)O2 (centres undefined)	24	11
O=C(CCc1c[nH]c2ccccc12)N1C[C@H](O)[C@@H](N2CCOCC2)C1	4	2
Cc1ccc(N2CCn3c2nnc(C(=O)NCCCO)c3=O)cc1	4	3
Cn1c(Sc2cnccn2)nnc1-c1ccc(F)cc1	3	0
Cc1cccc(NC(=O)CSc2ncc(S(=O)(=O)c3cccc(C(F)(F)F)c3)c(=O)[nH]2)c1C	5	-6

Continuation:
SMILES	NPYLR7 ag	NPYLR7 ag max-min
CCc1noc(-c2cc(Cl)ccc2NC(=O)Cc2ccon2)n1	3	3
COc1ccc(C=NNc2ncnc3sc4c(c23)CCCC4)cc1OC	5	0
CN(C)c1ccc(NC(=O)C2CCC2)cc1CN(Cc1ccc(F)cc1)C(=O)C1CC1	2	5
COC(=O)c1c(C)c(C(=O)CN(CC2CCCO2)C(=O)/C=C/c2ccccc2)c(C)n1C (centres undefined)	11	16
O=C(Nc1cc(F)cc(F)c1)C1CCN(c2ccc3nnc(C(F)(F)F)n3n2)CC1	-6	-8
COCCN(CCC(=O)Nc1ccc(C)cc1)c1nc(Cc2ccccc2)ns1	-2	9
Cn1c(=O)c2c(nc3n2CCCN3c2ccc(F)cc2)n(C)c1=O	-5	-6
CC(C)CN1CCC(NCCc2nc3ccccc3[nH]2)CC1	1	-8
CC(C)c1ncc(C(=O)N2CCOC(C(F)(F)F)C2)c(=O)[nH]1 (centres undefined)	-2	-2
Cc1nc(-c2cccc(NC(=O)C(=O)NC3CCCCC3C)c2)n[nH]1 (centres undefined)	6	5
O=C(COC(=O)C=Cc1cn(-c2ccccc2)nc1-c1cccs1)Nc1ccc([N+](=O)[O-])cc1	14	17
CCn1nc(C)c(CN2CCC(Oc3ccccc3C(=O)N3CCCCC3)CC2)c1C	6	0
FC(F)(F)COc1nc(N=Nc2ccccc2)nc(N2CCOCC2)n1	-5	-10
COc1c(F)cc(NS(=O)(=O)c2cn(C)c(Cl)n2)cc1F	8	9
COc1cc(-c2cc(C(F)(F)F)n3ncc(C(=O)Nc4ccc(C(C)=O)cc4)c3n2)cc(OC)c1OC	-10	0
O=C(CSc1nc(=O)[nH]c2c1CCC2)N1CCCCC1	0	-4
Cc1c(C(=O)N(C)Cc2ccc(F)cc2)sc(=O)n1Cc1ccc(F)c(Cl)c1	-8	-3
C=CCNC(=O)NC(=O)C12CC3CC(CC(C3)C1)C2	2	2
COc1ccc(Br)cc1/C=C1N=C(/C=C/c2ccccc2OC)OC\1=O	-5	-8
COc1ccc(-c2nnc3ccc(OCCNC(=O)CC(C)(C)C)nn23)cc1OC	-1	-3
CCC(C)NC(=O)c1ccccc1N1CCC(NC(=O)c2ccc(OC)cc2OC)CC1 (centres undefined)	-4	2
CN(CC1CCN(CCc2ccc(F)cc2)CC1)C(=O)c1csc2c1CCCC2	12	10
Cc1ccc(=O)n(CC(=O)NCc2cccnc2Oc2c(C)cccc2C)n1	4	3
CCCCN(Cc1cccn1Cc1ccc(Br)cc1)C(=O)CN(CCCOC)S(=O)(=O)c1ccc(Br)cc1	-2	4
CC(c1ccco1)N(C)S(=O)(=O)c1cccc(F)c1C#N (centres undefined)	-4	-6
CCOP(=O)(Cc1ccc(NC(=O)C2(C)CCc3c(C)c(O)c(C)c(C)c3O2)cc1)OCC (centres undefined)	-14	-20
CNC(=O)C1CCN(C(=O)c2cc(C)n(Cc3ccco3)c2C)CC1	-2	-2
Fc1cccc(-c2nc3ccccn3c2NC2CCCCC2)c1	11&2	10&7
N=C1C(c2nc3ccccc3s2)C(=O)CN1CC12CC3CC(CC(C3)C1)C2 (centres undefined)	-3	-4
O=C(NCCCc1ccccc1)N1CCN(C(c2ccccc2)c2ccccc2)CC1	4	5

Already shown: an excerpt of the list.
SMILES	NPYLR7 ag	NPYLR7 ag max-min
N=C1C(c2nc3ccccc3s2)C(=O)CN1CC12CC3CC(CC(C3)C1)C2 (centres undefined)	-3	-4
O=C(NCCCc1ccccc1)N1CCN(C(c2ccccc2)c2ccccc2)CC1	4	5

Next part:
SMILES	NPYLR7 ag	NPYLR7 ag max-min
COc1cccc2sc(NC(=O)C(CCSC)NC(=O)COc3ccccc3)nc12 (centres undefined)	-2	-2
O=C1NCC(=O)N2CCN(C(=O)C3(c4ccccc4)CCCC3)CC12 (centres undefined)	9	6
OCCN(Cc1ccccc1)c1nc(Nc2ccc(F)cc2)c2cn[nH]c2n1	5	4
CCn1c(C)cn2c3c(=O)n(CC(N)=O)c(=O)n(C)c3nc12	2	5
CCCc1c(C(=O)N2CCCC(C(=O)OCC)C2)cnn1-c1cccc(F)c1 (centres undefined)	10	22
CCc1nc2ccccc2n1CCC(=O)N1CCCC(CO)(Cc2ccccc2C)C1 (centres undefined)	19&-12	9&-15
COc1ccc(OCCCCOc2ccccc2OC)cc1	13	5
Cc1ccccc1CSc1ncc(CO)n1CC(=O)NCc1ccc(F)cc1	3	2
COc1cccc(Oc2cnn(-c3ccccc3Cl)c(=O)c2Nc2cccc(C(=O)O)c2)c1	6	2
O=C(O)C1CCCc2sccc21 (centres undefined)	-1	0
COC(=O)c1ccc(NC(=O)N2CCCC(C(=O)c3sccc3C)C2)cc1 (centres undefined)	5	4
COc1ccc(OCc2nc(C(=O)NCc3cn4ccc(C)cc4n3)co2)cc1	4	-1
Cc1nn(C)c(C)c1CCC(=O)Nc1cncc(N2CCCC2)n1	19	12
Cc1ccc(-c2nc(CN(Cc3ccccc3)C[C@@H]3CCC(=O)N3)c(C)o2)o1	-6	-11
CC(c1ccncn1)N(C)Cc1c(C(=O)N2CCCCCCC2)nc2sccn12 (centres undefined)	15	2
Cn1c2c(c(=O)n(C)c1=O)C(c1ccc(F)cc1F)C1=C(N2)c2ccccc2C1=O (centres undefined)	1	1
Cc1nnc(SC(C)C(=O)NC(N)=O)n1C1CCCCC1 (centres undefined)	1	-1
COc1ccc(-c2nn(-c3ccccc3C)c(OC(C)=O)c2-c2ccc(N)cc2)cc1	-7	-4
Cc1ccc(CC(=O)N=c2sc3cc4c(cc3n2C)OCO4)cc1C	3	1
Cc1ccc(C)c(Nc2nc(NCCN3CCOCC3)nc3nccnc23)c1	7	10
CCOC(=O)N1CCN(C(c2ccc(OC)c(OC)c2)c2c(O)cc(C)n(CC)c2=O)CC1 (centres undefined)	4	-3
Cn1c(N)c(C(=O)CSc2nnc3c(n2)[nH]c2ccccc23)c(=O)n(C)c1=O	6	11
CCC(C)COC(=O)C(C#N)c1nc2ccccc2nc1N1CCCCC1 (centres undefined)	-10	-13
COc1nc2cn(C3CCCC3)c(O)c2cc1CNC(=O)c1ccncc1F	-2	-3
CC(Cl)C(=O)N1CCC2(CC1)NC(=O)c1cc(Br)ccc1N2 (centres undefined)	-16	-3
O=C(Nc1nccs1)c1cc(-c2ccccc2)n(C2CCS(=O)(=O)C2)n1 (centres undefined)	1	-1

Screens (PubChem BioAssay)

An excerpt; rates above refer to the full screens.
